KCNQ2 pot – potentiators of rat KCNQ2 potassium channel; CHO-K1 KCNQ2, FluxOR thallium flux fluorescence; active compounds read high; B-score at 10 µM; 310,000 tested, 0.54% active; AID 2239, 2010;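 active = fluorescence ratio B-score at least 3 SD of library B-scores, with initial fluorescence B-score within 3 SD, cut at about 5.3 in these data; same plate scores as AID 2156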;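 also: B-score of peak minus minimum over baseline fluorescence ratio after K+ and Tl+ stimulus; positive B-score means potentiation of KCNQ2 with more thallium influx and brighter signal; only the inactives scoring about 0 or higher are listed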
Target sequence (O88943 whole entry, looked up): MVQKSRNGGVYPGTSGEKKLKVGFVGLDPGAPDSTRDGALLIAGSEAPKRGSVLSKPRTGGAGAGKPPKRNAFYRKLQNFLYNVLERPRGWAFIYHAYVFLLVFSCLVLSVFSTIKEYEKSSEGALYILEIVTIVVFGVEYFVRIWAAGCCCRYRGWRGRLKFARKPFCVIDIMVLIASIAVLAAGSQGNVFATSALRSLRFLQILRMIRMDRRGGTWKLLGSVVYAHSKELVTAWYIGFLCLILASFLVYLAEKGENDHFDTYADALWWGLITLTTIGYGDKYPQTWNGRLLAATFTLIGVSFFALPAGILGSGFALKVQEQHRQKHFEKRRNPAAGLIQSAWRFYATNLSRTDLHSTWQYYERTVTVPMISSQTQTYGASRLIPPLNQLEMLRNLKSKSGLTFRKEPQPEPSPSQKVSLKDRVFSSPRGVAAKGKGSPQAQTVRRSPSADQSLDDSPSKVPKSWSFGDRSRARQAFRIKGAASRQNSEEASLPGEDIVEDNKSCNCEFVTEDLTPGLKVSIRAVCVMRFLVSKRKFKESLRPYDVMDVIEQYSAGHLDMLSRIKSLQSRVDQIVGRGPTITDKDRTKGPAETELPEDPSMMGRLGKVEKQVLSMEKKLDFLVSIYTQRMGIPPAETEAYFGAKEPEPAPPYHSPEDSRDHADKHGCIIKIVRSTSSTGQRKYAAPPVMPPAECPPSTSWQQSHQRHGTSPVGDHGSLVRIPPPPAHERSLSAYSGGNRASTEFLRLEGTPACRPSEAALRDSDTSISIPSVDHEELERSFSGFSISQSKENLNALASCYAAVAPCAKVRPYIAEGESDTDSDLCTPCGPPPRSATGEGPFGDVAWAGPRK
KCNQ2 pot baseline – second read-out of KCNQ2 pot, no call of its own (marks repeat the call); B-score; compound at 10 µM; measured here: initial fluorescence intensity artifact check;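 brightness before thallium and not channel activity; 0 = typical well and far values either way flag optical interference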
* hit, by the source's call; / = not tested or not shown. An excerpt; count on the stated rates, not on these rows.

A first look, 2 compounds:
SMILES | KCNQ2 pot | KCNQ2 pot baseline
CC1CCC(NC(=O)c2cccc(S(=O)(=O)N3CCN(C)CC3)c2)CC1 (stereo not given) | 0.42 | -0.3
COc1ccc(NC(=O)Nc2nc(C)cc(C)n2)c(OC)c1 | 0.67 | 0.29

The listing, previewed entries included:
SMILES | KCNQ2 pot | KCNQ2 pot baseline
CC1CCC(NC(=O)c2cccc(S(=O)(=O)N3CCN(C)CC3)c2)CC1 (stereo not given) | 0.42 | -0.3
COc1ccc(NC(=O)Nc2nc(C)cc(C)n2)c(OC)c1 | 0.67 | 0.29
CCN(c1ccccc1)S(=O)(=O)c1ccc2c(c1)N(C(C)=O)CCO2 | 0.13 | 1.76
O=C(NCC1CCN(c2ccc(S(=O)(=O)N3CCOCC3)cc2)CC1)Nc1ccccc1F | 0.92 | -2.56
CCN1C(=O)N[C@@H](c2cccs2)C(C(C)=O)=C1C | 1.61 | -0.25
CCCc1nc2ccccc2c(=O)n1/N=C/c1c(C)[nH]n(-c2ccc(C)cc2)c1=O | 4.42 | -1.14
COc1ccc(CCNC(=O)C2CCCN(c3nc(C)cc(C)n3)C2)cc1 (stereo not given) | 0.03 | -2.6
CCc1ccc(/C=C/C(=O)C2C(=O)c3ccccc3C2=O)cc1 | 3.54 | 0.2
O=C(COC(=O)C1CCC1)NCc1ccc(F)cc1 | 0.1 | -0.32
O=C(NC1CCOCC1)C1CCC(=O)N(Cc2ccc(Cl)cc2)C1 (stereo not given) | 0.33 | -1.31

Entries of single compounds, quoted from the list:
Shown for `CCN(c1ccccc1)S(=O)(=O)c1ccc2c(c1)N(C(C)=O)CCO2` = KCNQ2 pot: 0.13; KCNQ2 pot baseline: 1.76
Shown for `O=C(NCC1CCN(c2ccc(S(=O)(=O)N3CCOCC3)cc2)CC1)Nc1ccccc1F` = KCNQ2 pot: 0.92; KCNQ2 pot baseline: -2.56

Following part:
SMILES | KCNQ2 pot | KCNQ2 pot baseline
COc1ccc(NC(=S)N(CCc2c(C)[nH]c3ccccc23)Cc2cccnc2)cc1 | 0.3 | 0.07
CCN(C(=O)c1cc2cc3ccc(C)cc3nc2o1)c1ccc(OC)cc1 | 0.75 | -0.56
O=C(CCc1nnc(CCCc2ccccc2)o1)NCC(F)(F)F | 0.71 | 0.59
COc1ccc(-c2cc(C(=O)Nc3nc4ccccc4s3)c3ccccc3n2)cc1OC | 0.07 | -0.95
O=C(O)C(c1ccccc1)N1C(=O)c2cccc3cccc(c23)C1=O (stereo not given) | 0.93 | -1.27
COc1cccc(C(C)NC(=S)NCc2ccc(F)cc2)c1 (stereo not given) | 3.23 | 0.95
CCN1C(=O)c2cccc3c(S(=O)(=O)NC(Cc4c[nH]c5ccccc45)C(=O)O)ccc1c23 (stereo not given) | 0.39 | -0.21
Cc1ccccc1OCC(=O)OCC(=O)NCc1ccco1 | 0.77 | 0.13
COc1ccc(SCCN2CCN(CC(C)C)CCC2=O)cc1 | 0.48 | 0.83
O=C1Nc2ccc(Br)cc2C1(O)c1ccccc1 (stereo not given) | 1.93 | -1.56
CCOC(=O)COn1c(=O)c(-c2ccc(OC)c(OC)c2)[n+]([O-])c2ccccc21 | 0.72 | 0.35
COCCCNCCCOc1ccc(C(C)(C)c2ccccc2)cc1 | 0.52 | 1.38
CCS(=O)(=O)c1ccc2oc(Nc3ccc(C(C)(C)C)cc3)nc2c1 | 0.06 | 0.28
Cc1cc(NC2C3CC4CC(C3)CC2C4)n2ncnc2n1 (stereo not given) | 2.28 | -0.97
CC(=O)n1c(C=Nc2ccc(Cl)cc2)c(O)c2ccccc21 | 1.36 | -1.7
COC(=O)c1sc2ccccc2c1N | 0.06 | -0.34
Cc1cc(=O)nc2c3ccccc3n(C(C)C(=O)NCCN3CCOCC3)n12 (stereo not given) | 0.11 | 0.97
COc1ccccc1NC(=O)c1nn(-c2ccccc2)ccc1=O | 0.51 | -0.56
COC(=O)CSc1snnc1-c1ccc(Cl)cc1Cl | 0.47 | 0.19
CCN1CCN(C(=O)Cn2nc(C)n3c(cc4c(OC)cccc43)c2=O)CC1 | 1.07 | 1.64
CCCCOc1ccc(Cc2c(COCC)[nH]c(=S)[nH]c2=O)cc1 | 0.87 | 0.48
COC(=O)c1cc(NC(=O)C2(S(=O)(=O)c3ccc(C)cc3)CC2)cc(C(=O)OC)c1 | 1.94 | -1.74
CCN(CC)C(=O)C1CCC(CNS(=O)(=O)c2cccc3nsnc23)CC1 (stereo not given) | 0.08 | 1.16
Cc1cccc(NC(=O)CC(C)(C)C)c1 | 1.02 | -0.08
Cc1ccc(OCC(=O)NNC(=O)Nc2ccc(Cl)cc2)c(Br)c1 | 1.68 | 0.19
Cc1ccc(NC(=O)c2cncc(Br)c2)nc1 | 0.02 | 0.11
Cc1cccc(C)c1NC(=O)CN1CCNCC1 | 1.04 | 1.51
O=S(=O)(Nc1cccc(-n2cnnn2)c1)c1ccccc1C(F)(F)F | 2.1 | -0.45
CC1CC(C)CN(C(=O)Cn2nnc(-c3ccc(Br)cc3)n2)C1 (stereo not given) | 0.23 | 0.22
O=C(OC(C(=O)NCc1ccc2c(c1)OCO2)c1ccccc1F)c1ccco1 (stereo not given) | 0.2 | -1.11
CC(C)[C@H](Nc1ccc(C(F)(F)F)cc1[N+](=O)[O-])C(=O)O | 1.56 | -2.73
CC(=O)c1ccc(NC(=O)CCc2c(C)nc3ncnn3c2C)cc1 | 0.72 | -0.1
CCOc1ccc(NS(=O)(=O)c2ccc3[nH]c(=O)oc3c2)cc1 | 2.18 | 0.41
Cc1noc(C)c1C(=O)OCC(=O)/C=C1\N(C)c2ccccc2C1(C)C | 0.5 | -0.92
COc1ccc2[nH]c3c(=O)n(CCCC(=O)NC4CCCCC4C)c(=S)[nH]c3c2c1 (stereo not given) | 1.48 | -0.88
COc1ccc(C(=O)N2CCc3ccc(NC(=O)c4ccccn4)cc3C2)cc1F | 0.04 | -0.1
N#Cc1c(Cc2cccc3ccccc23)nn(CCO)c1N | 1.75 | 0.38
Clc1c(-c2nnc3n2CCCCC3)sc2ccccc12 | 0.64 | 0.02
COC(=O)N/N=C/c1cc(N=Nc2ccccc2Cl)ccc1O | 1.23 | 0.47
CCCCn1c(N)c(N(CC(C)C)C(=O)Cn2c(=O)oc3ccccc32)c(=O)[nH]c1=O | 0.77 | -3.04
COc1ccc([N+](=O)[O-])cc1NC(=O)Cc1c(Cl)cccc1Cl | 0.18 | 0.21
Cc1ccc(SCc2[nH]nc3c2C2(C(=O)Nc4ccc(F)cc42)C(C#N)=C(N)O3)cc1 (stereo not given) | 1.54 | 1.16
CCCCOC(=O)c1ccc(S(N)(=O)=O)o1 | 1.62 | 0.01
O=C(Oc1ccc(Cl)c2cccnc12)c1ccco1 | 4.75 | 1.06
O=C(Cc1coc2cc3c(cc12)CCC3)NC1CCCCCCC1 | 12.4* | 1.45*
N#Cc1ccc(CN2CCN(CC(=O)NCCc3ccc(Cl)cc3Cl)CC2)cc1 | 1.97 | -0.69
CC(=O)Nc1cccc(NC(=S)Nc2ccc(F)c(Cl)c2)c1 | 0.06 | -0.15
COc1cccc(N2CCN(C(=O)CCS(=O)(=O)c3ccc4c(c3)oc(=O)n4C)CC2)c1 | 1.87 | 0.56
Cc1cc(C)cc(NC(=O)CSc2cc(C(=O)c3nccn3C)c3ccccc3n2)c1 | 0.28 | -0.62
O=[N+]([O-])c1ccccc1/C=N/N1CCN(c2ccccn2)CC1 | 0.15 | 0.28

(listing goes on)
SMILES | KCNQ2 pot | KCNQ2 pot baseline
Cc1ccc(/C=C/C(=O)Nc2ccncc2)o1 | 0.11 | 0.46
CCCCC(=O)Nc1cc(NC(=O)CC)ccc1Cl | 2.01 | 0.62
CC1=C(C(=O)Nc2ccccc2)C(c2cccs2)NC(=O)N1 (stereo not given) | 1.03 | -0.3
CCO/C=N/c1c(C#N)c(CC#N)nn1-c1ccccc1 | 0.87 | -1.61
Cc1ccc(NC(=O)CCNC(=O)c2ccc(Cl)cc2)cc1C | 0.07 | 0.68
Cc1c(C(=O)OCc2ccccc2)nnn1-c1nonc1N | 1.41 | -0.75
CCOc1cc(N2CCOCC2)c(OCC)cc1NC1=NCCCCC1 | 0.17 | -1.96
O=C(CSc1ccc(-c2ccncc2)nn1)N1CCN(c2ccccc2)CC1 | 1.16 | -0.36
COCCCN1C(=O)C(=O)/C(=C(/O)c2ccc(S(=O)(=O)N3CCCCC3)cc2)C1c1ccc(O)cc1 (stereo not given) | 0.61 | -0.01
Cc1cccc(CN2CCCC(C(=O)N3CCCCC3)C2)c1 (stereo not given) | 0.16 | -0.57

(further entries)
The line under a structure holds: KCNQ2 pot	KCNQ2 pot baseline
Cc1ccc(C(=O)NCCNC(=O)COc2ccc(C)c(C)c2)cn1
    0.34	-0.43
COc1ccc(OC)c(N(CC(=O)Nc2cccnc2)S(=O)(=O)c2ccc(C)cc2)c1
    0.41	-0.64
NC(=O)c1ccc(C(F)(F)F)n(Cc2c(Cl)cccc2Cl)c1=O
    0.42	-0.04
O=C(COC(=O)c1cccnc1Cl)Nc1nc(-c2ccccc2)cs1
    0.25	0.57
O=C(CCN1C(=O)C2C3CCC(C3)C2C1=O)Nc1ccc(F)cc1 (stereo not given)
    0.01	-1.95
Nc1nnc(/C=C/c2cccc([N+](=O)[O-])c2)s1
    1.39	-0.79
COC(=O)CN1C(=O)[C@H]2[C@@H](c3ccc(C)o3)N3C(=O)CN(Cc4ccccn4)C(=O)[C@@]3(Cc3ccccc3)[C@H]2C1=O
    0.04	-0.04
CC(/C=N/NC(=O)c1cc(C(C)(C)C)[nH]n1)=C\c1ccccc1
    1.23	0.06
CCOc1ccc(C(=O)N/N=C/c2cc(Cl)ccc2[N+](=O)[O-])cc1
    0.93	0.06
CNS(=O)(=O)Cc1ccc2[nH]cc(CCN(C)C)c2c1
    0.39	/
COc1ccc(CCNC(=O)C(C)OC(=O)c2ccco2)cc1OC (stereo not given)
    0.1	0.69
CN(C)c1ccc(N=Cc2cccn2C)cc1
    0.02	1.25
COc1ccc(/C=N/NC(=O)c2cccc([N+](=O)[O-])c2)cc1O
    0.73	-0.28
COc1ccc(C(=O)NCc2nnc(SCC(=O)N3CCCc4ccccc43)o2)cc1OC
    0.58	1.15
Cc1cc(=O)oc(C)c1C(=O)Nc1cccc2ccccc12
    2.91	0.77
CCc1ccc(S(=O)(=O)NCc2cn3ccsc3n2)s1
    1.99	1.14
Cc1cc(=O)[nH]c(N/N=C/c2cc(C)n(CC(F)(F)F)c2C)n1
    0.05	1.14
Cn1c(CSCc2ccccc2Cl)n[nH]c1=S
    0.58	0.94
COc1cc2ncnc(NCc3ccc(Cl)cc3)c2cc1OC
    1.04	-0.01
COc1cccc(CN2CCC(Oc3ccc(C(=O)N4CCCCC4)cc3)CC2)c1O
    1.04	-1.55
CC(NC(=O)c1ccccc1F)c1nnc(SCc2nc3ccccc3c(=O)[nH]2)n1C (stereo not given)
    0.92	0.63
COc1ccc(CCC(=O)Nc2nnc(C)s2)cc1
    0.2	0.96
NC(=O)CCC(NC(=O)c1ccc(Cl)cc1)C(=O)O (stereo not given)
    0.2	-2.35
O=C(N=Nc1c(O)[nH]c2ccc(Br)cc12)c1cc(-c2cccs2)nc2ccccc12
    0.06	0.53
Cc1n[nH]c(=O)n1-c1cccc(C(F)(F)F)c1
    0.79	2.15
Cc1ccccc1NC(=O)c1cc[n+]([O-])cc1
    0.1	-1.51
COc1ccccc1NC(=O)Nc1cccc(C)n1
    0.67	-1.15
CSc1nnnn1-c1ccc(C(=O)O)cc1
    1	-0.43
Cc1cc(Cl)nc(Cl)c1C(=O)NC(=O)NCCC(C)C
    0.05	0.03
CCCNC(=O)N[C@@H](CCSC)C(=O)OC
    1.23	0.05
Cc1cc(C(=O)Nc2ccc(S(=O)(=O)N3CCCC3)cc2)cs1
    0.55	1.52
S=C(NCc1ccncc1)Nc1ccc(Cl)c(Cl)c1
    0.49	-0.2
O=C(O)CC(C(=O)Nc1ccc(F)cc1)C1CCCO1 (stereo not given)
    0.04	0.8
CCCSCCCNC(=O)CN1C(=O)COc2ccc(S(=O)(=O)N3CCCC3)cc21
    0.03	-0.71
CCOc1ccc(-n2c(SCC(=O)Nc3ccc(CC)cc3)nc3n[nH]c(C)c3c2=N)cc1
    0.44	-1.28
Cc1cc(C)cc(C(=O)Nc2cccnc2)c1
    1.14	-0.78
NC(=O)c1nn(-c2ccccc2)nc1NC(=O)Cn1nnc(-c2ccccc2)n1
    0.31	1.32
Cc1nc2ccc(S(=O)(=O)NCC(=O)N3CCc4ccccc4C3)cc2s1
    0.8	-0.37
CCCCNC(=O)c1cc(-c2ccc(F)cc2)on1
    0.39	-0.53
O=C(NNS(=O)(=O)c1ccccc1)C(O)(c1ccccc1)c1ccccc1
    0.5	0.24
c1ccc(C2=Nn3c(Cn4nnc5ccccc54)nnc3SC2)cc1
    0.88	-0.34
C#CCn1c(=NC(=O)CSC(C)=O)sc2cc(F)ccc21
    20.3*	0.74*
CCn1c(CSCc2ccccc2)n[nH]c1=S
    0.64	-0.96
CN(C)CCCNc1nc(-c2ccccc2)nc2ccccc12
    0.48	-0.44
CN1CCN(C(=O)c2cc3nc(-c4ccccc4)cc(C(F)(F)F)n3n2)CC1
    1.47	-1.75
CC1Cc2ccccc2N1C(=O)CN1C(=O)COc2ccccc21 (stereo not given)
    0.77	-1.6
CC(C)CCN1C(=O)c2ccc(C(=O)N3CCCCC3)cc2C1=O
    0.73	-2.25
CCN(CC)S(=O)(=O)c1cccc(NC(=O)COC(=O)C2CC3C=CC2C3)c1 (stereo not given)
    0.29	-0.29
O=C(CSc1ccc(Cl)cc1)NCC1CCCO1 (stereo not given)
    0.05	1.71
CCCC(=O)Nc1nc(-c2ccc(OC)cc2)cs1
    1.02	-1.64
COC(=O)c1ccc(COC(=O)C(CCS(C)(=O)=O)N2C(=O)c3ccccc3C2=O)cc1 (stereo not given)
    2.15	0.03
CCOC(=O)c1cc(NC(=O)COC)ccc1O
    1.32	-0.33
